# gsp antag = gsp mutant antagonism; gsp-mutant cells, cAMP HTRF, 30 min; control for the full effect not named in the record; Potency, µM (titrated, usually from 76.9 µM), for inactives: at the top dose activity change, negative = inhibition, usual class: inhibitors; actives 0.4% (n = 340,000); active = falling curve of any shape with a large fitted effect; inconclusive = falling curve, mostly with a smaller effect; inactive = flat or rising curve; cell line not stated here;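 also: intracellular cAMP measured with PDE inhibitor Ro 20-1724 present during compound exposure; potency is read from the fitted curve at half-maximal effect; % is scaled to controls: 0 for no effect and ±100 for the full control effect; nearly all actives have a fitted effect of over 65% in size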
#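 Measurement of cellular cAMP by homogeneous time-resolved fluorescence following a 30 min compound exposure at 37C. The PDE inhibitor […] was present throughout; the assay buffer was DPBS with 0.05% BSA and 0.005% Tween 20.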
# Menin MLL FP FL = displaces fluorescein MLL peptide from human menin; Fluorescence polarization, fluorescein-MLL peptide displacement from menin; FP activity change, % at 61.4 µM; 290,000 tested, under 10 active; inconclusive = falling polarisation curve, or a change in total fluorescence; inactive = total fluorescence flat and polarisation flat or rising; no compound was filed as active; the % refers to the polarisation; negative = inhibition;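 also: % of control where 0% means no effect; inhibitors lower the polarisation; unlabelled MLL peptide was the positive control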
# TRPML1 agonist = activates the human TRPML1 channel. activation, % (test concentration not listed). TRPML1-expressing cells, Ca2+ dye fluorescence, FDSS; host cell line not named in the record; reference of the full effect not given here. Q9GZU1. actives 0.12% (n = 410,000); in the data active = activation above about 50%; inconclusive = about 30% to 50%; inactive = below about 30%; also: 0% is about no effect; the text of the record puts the active cut at 80%
# Target sequence (Q9GZU1 whole entry, looked up): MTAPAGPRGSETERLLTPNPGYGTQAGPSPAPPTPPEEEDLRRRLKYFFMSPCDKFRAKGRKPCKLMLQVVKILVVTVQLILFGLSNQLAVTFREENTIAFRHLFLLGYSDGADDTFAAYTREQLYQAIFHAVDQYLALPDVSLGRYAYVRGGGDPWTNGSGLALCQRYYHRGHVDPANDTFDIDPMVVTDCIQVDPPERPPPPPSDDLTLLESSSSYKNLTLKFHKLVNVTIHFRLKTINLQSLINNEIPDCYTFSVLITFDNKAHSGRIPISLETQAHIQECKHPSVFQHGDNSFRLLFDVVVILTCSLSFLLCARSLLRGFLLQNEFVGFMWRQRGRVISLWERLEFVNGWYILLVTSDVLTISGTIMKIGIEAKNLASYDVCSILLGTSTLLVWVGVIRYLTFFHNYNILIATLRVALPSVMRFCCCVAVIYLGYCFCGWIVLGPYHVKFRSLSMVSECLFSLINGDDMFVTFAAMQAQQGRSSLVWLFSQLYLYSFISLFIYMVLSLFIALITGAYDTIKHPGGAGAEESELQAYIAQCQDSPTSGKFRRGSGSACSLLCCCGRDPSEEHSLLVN
#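 Tetracycline-induced TRPML1-DL cells are seeded and incubated overnight before loading with a no-wash Ca2+ dye and quencher. Agonist activity is taken from the 110 s fluorescence read following compound pin-transfer on an FDSS, before EC80 54-4 challenge.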
# ClpP mod = qHTS Assay for Activators of ClpP. purified B. subtilis ClpP, FRET peptide cleavage, 20 min. Potency, µM (series often up to 57.5 µM), for the others: at the highest dose activity change, negative = active. actives 1.9% (n = 340,000). AID 651965, 2013; active = well fitted falling curve with a large enough effect; inconclusive = small, poorly fitted or top-dose-only effect; inactive = no such curve, though single readings can be large or run the other way; also: potency is read from the fitted curve at half-maximal effect; the source files actives as falling curves though it sought activators and does not explain the sign; nearly all actives have a fitted effect of over 65% in size; many hits overshoot -100%
# Target sequence (P80244 whole entry, looked up): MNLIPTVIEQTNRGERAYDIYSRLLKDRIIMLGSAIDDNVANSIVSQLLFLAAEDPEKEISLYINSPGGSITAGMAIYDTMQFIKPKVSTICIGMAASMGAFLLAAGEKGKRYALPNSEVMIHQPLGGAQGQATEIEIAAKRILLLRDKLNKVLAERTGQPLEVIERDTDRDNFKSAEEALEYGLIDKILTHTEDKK
#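 Purified B. subtilis ClpP, 10 microg/mL final in Tris/HCl pH8 with KCl, BSA, glycerol and Tween-20, cleaved an Abz/nitrotyrosine-quenched decapeptide. Fluorescence (ex 320, em 430) was read at 0 and 20 min at room temperature. Delta was normalized to 5.8 microM ADEP and DMSO/no-enzyme controls.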
# gsp agonist = activates gsp, the McCune-Albright syndrome mutation; gsp mutant cells, cAMP HTRF, 30 min; control for the full effect not named in the record; Potency, µM (top dose mostly 76.9 µM), without a hit: at the highest dose activation (cAMP increase), most hits filed as activators; actives 0.13% (n = 340,000); AID 624287; active = well fitted activation curve with a large enough effect; inconclusive = small, poorly fitted or top-dose-only effect, or another doubt; inactive = no such curve, though single readings can be large or run the other way; cell line not stated here;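 also: phosphodiesterase inhibitor Ro 20-1724 added with compounds to block cAMP breakdown; potency is read from the fitted curve at half-maximal effect; nearly all actives have a fitted effect of over 60% in size; about a fifth of the inactives were tested at one dose only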
#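 Cells in DMEM/10% FBS with G418 were pretreated with compounds in DMSO plus […] (300 uM stock) for 30 min at 37C. cAMP was measured by HTRF (cAMP-d2 plus anti-cAMP antibody-K) after 30 min at room temperature.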
# TRPML1 inh = human mucolipin-1 channel inhibition; AID 624415; TRPML1-inducible cells, Ca2+ dye fluorescence, FDSS; stronger effect = lower value; inhibition of EC80 agonist-evoked calcium signal; Q9GZU1; actives 0.02% (n = 390,000); activity change, negative = inhibition, % (concentration not given with the values); in the data active means activity change below about -50%; inconclusive means about -30% to -50%; inactive means above about -30%;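 also: stimulus is agonist 54-4 at its EC80 concentration; % is scaled to controls: 0 for no effect and ±100 for the full control effect; compound concentration not given in the record; the text of the record puts the active cut at -80%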
#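 TRPML1-DL cells, Tet-induced overnight (~16 h, 37 °C) at 1,500 cells/well, were loaded with Ca8 no-wash dye plus quencher for 45-90 min at room temperature. Compounds were pinned during FDSS kinetic reading; agonist 54-4 at EC80 (4 uM final) then added.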
# * hit, by the source's call; ? = inconclusive; nt = no result given; & = joins results of further samples; [ ] = dose if it differs, or a comment. No enrichment for hits. About 2.1% of those tested had a hit in this group.
structure,gsp antag,Menin MLL FP FL,TRPML1 agonist,ClpP mod,gsp agonist,TRPML1 inh
Cn1nnnc1SCC(=O)Nc1nc2c(F)c(F)c(F)cc2s1,8%,nt,0.5,nt,9%,-7
CCCCSc1nc(O)c(C2OC(=O)c3c2ccc(OC)c3OC)c(=O)n1-c1ccccc1 (stereo not drawn),-23%,4.1,-0.8,-3.7%,22%,4
C=C(C)CSc1nc2c(cc1C#N)CCC2,-21%,3.3,1.4,-4.5%,-26%,-3
COC(C[C@H](O)C[C@@H](O)[C@@H](C)OCc1ccccc1)OC,4%,-2.0,-0.7,0.6%,nt,5
CCN(CC)S(=O)(=O)c1cc([N+](=O)[O-])ccc1NNC(=O)Nc1ccc(Cl)c(Cl)c1,?,4.5,-0.1,0.6%,4%,8
CCN(C(=O)CN1C(=O)c2ccc([N+](=O)[O-])cc2C1=O)C1CCS(=O)(=O)C1 (stereo not drawn),21%,nt,0.3,3.6%,9%[15.4 µM],1
CCCCn1c(N)c(N(CC(C)C)C(=O)c2ccc(-c3ccc(Cl)cc3)o2)c(=O)[nH]c1=O,?,nt,0.0,4.9%,?,20
N#Cc1c(C#N)c(SSc2c(C#N)c(C#N)c(N)n2-c2ccccc2)n(-c2ccccc2)c1N,10%,nt,0.6,1.7%,-4%,6
CCc1cc(=O)oc2cc(C)cc(OCC(=O)NCc3ccncc3)c12,-24%,nt,-0.4,3.7%,?,-4
Cc1cc2c(=O)n(C)c(SCC(=O)Nc3ccccc3)nc2s1,13%,-1.1,-0.1,nt,0%[15.4 µM],3
Cc1nnsc1-c1onc(C)c1C(=O)Nc1cc(Cl)cc(Cl)c1,?,-5.8,-1.3,-1.3%,-10%,27
Cc1nc2c(-c3ccc(F)cc3)c(C)nn2c(C)c1CCC(=O)N1CCOCC1,-13%,4.2,-0.5,-0.8%,-19%,14
CC(C)(C)c1ccc(-c2nc(S(=O)(=O)c3ccccc3)c(N3CCOCC3)o2)cc1,nt,nt,0.7,-23%,nt,8
CC1CC(NC2=NCCS2)CC(C)(C)C1 (stereo not drawn),6%,0.0,0.9,-2.3%,-4%[15.4 µM],6
CC12CCC(=O)N1C(C(=O)NCCc1ccc(F)cc1)CS2 (stereo not drawn),15%,nt,0.0,-2.9%,-7%,-4
Cc1ccc(S(=O)(=O)Oc2ccccc2)cc1,-1%,nt,0.3,nt,8%,-6
CC(C(=O)Nc1ccc([N+](=O)[O-])cc1)N1CCN(C/C=C/c2ccccc2)CC1 (stereo not drawn),1%,1.8,2.2,-3.1%,-4%[15.4 µM],12
O=C(NCCO)c1c(-c2ccc3c(c2)OCO3)noc1-c1ccsc1,8%,nt,-0.1,-0.7%,nt,11
COc1ccc(-c2cc(C(=O)NCC3CCCO3)on2)cc1OC (stereo not drawn),-3%,1.5,-0.5,1.6%,15%,30
CC(NC(=O)Nc1ccc(F)cc1)C(c1cccs1)N1CCCC1 (stereo not drawn),8%,3.6,0.9,-1.7%,29%[15.4 µM],-9

# Structural class: the entries above containing a nitro group on carbon
structure,gsp antag,Menin MLL FP FL,TRPML1 agonist,ClpP mod,gsp agonist,TRPML1 inh
CCN(CC)S(=O)(=O)c1cc([N+](=O)[O-])ccc1NNC(=O)Nc1ccc(Cl)c(Cl)c1,?,4.5,-0.1,0.6%,4%,8
CCN(C(=O)CN1C(=O)c2ccc([N+](=O)[O-])cc2C1=O)C1CCS(=O)(=O)C1 (stereo not drawn),21%,nt,0.3,3.6%,9%[15.4 µM],1
CC(C(=O)Nc1ccc([N+](=O)[O-])cc1)N1CCN(C/C=C/c2ccccc2)CC1 (stereo not drawn),1%,1.8,2.2,-3.1%,-4%[15.4 µM],12

# (cont.)
structure,gsp antag,Menin MLL FP FL,TRPML1 agonist,ClpP mod,gsp agonist,TRPML1 inh
CC(C)c1ccc([N+](=O)[O-])cc1S(=O)(=O)N1CCN(C)CC1,7%,-1.0,0.7,0.2%,11%,7
CC1=C(C)C(C)=C(C#N)C(=C(C#N)C#N)N1,9%,-1.0,-0.2,nt,10%[15.4 µM],-3
CC[C@@]1(C(=O)OC)N[C@H](CN(C)C(=O)C2CCCCC2)[C@@H]2C(=O)N(Cc3ccccc3)C(=O)[C@@H]21,6%,nt,1.0,-1.7%,nt,12
O=C(NCc1ccccc1)c1ccccc1,6%,nt,-0.1,0.8%,-60%[inhibitor],2
Cn1c(=O)[nH]c(=O)c2c1nc(N1CCN(CCO)CC1)n2Cc1ccccc1,1%,-5.3,-0.6,nt,8%,52
COc1ccc(CN2CC(C(=O)NCCCN3CCN(C)CC3)CC2=O)cc1 (stereo not drawn),9%,-0.3,0.1,-3.5%,-8%,-5
COc1ccc(C(=O)N[C@H](C(=O)OCc2cc(=O)oc3cc(C)ccc23)C(C)C)cc1,-10%,-0.8,-0.6,1.2%,-5%[15.4 µM],4
CC(C)(C)OC(=O)N[C@@H](Cc1ccccc1)C(=O)N1CCC(C(=O)N[C@@H](CCC(N)=O)C(=O)O)CC1,12%,-12,0.9,1.8%,-4%,-11
Cc1ccc(NC(=O)CSc2nnnn2C2CCCC2)cc1S(=O)(=O)N1CCOCC1,-4%,nt,-0.2,0.9%,4%,3
COc1ccc(C2/C=C\CN(C(=O)C3CCCC3)[C@H](Cc3ccccc3)C(=O)N2Cc2ccc(F)cc2)cc1 (stereo partly drawn),-2%,2.0,1.5,-15%,-45%[inhibitor],68
COCCN=c1scc(-c2ccc3c(c2)NC(=O)CO3)n1/N=C(\C)c1ccc(O)cc1,?,?,1.6,nt,-24%[15.4 µM],-11
O=C(CCN1CCN(Cc2ccccc2)CC1)NNC(=O)Nc1cccc(C(F)(F)F)c1,-7%,0.8,-0.5,1.8%,-1%,9
COc1ccc(S(=O)(=O)N2CCOCC2)cc1NC(=O)c1ccc(=O)[nH]c1,10%,nt,0.3,0.5%,-1%[15.4 µM],3
CN1CCN(c2nc3c(c(=O)n(C)c(=O)n3C)n2CCSc2nc3ccccc3s2)CC1,7%,-0.2,0.0,-7.1%,11%,1
O=C(CNCC1CCCO1)Nc1ccccc1N1CCCCCC1 (stereo not drawn),-9%,1.4,2.3,-0.9%,-29%,15
CC(=O)c1c2c3c(cccc3n(C)c1=O)C(=O)c1ccccc1-2,1%,?,-0.1,-0.7%,8%,22
Cc1nn2c(=O)cc(COC(=O)c3ccc(NC(=O)c4cccs4)cc3)nc2s1,nt,nt,1.3,5.2%,nt,-2
Cc1cc(=O)n2nc(-c3ccccc3)sc2n1,-1%,-1.1,0.0,?,12%,-8
COc1cc(/C=N\N=C2/SC(CC(=O)O)C(=O)N2c2ccc(O)cc2)ccc1O (stereo not drawn),7%,-1.9,0.3,-9.8%,3%,5
Cc1occc1C(=O)Nc1ccccc1NC(=O)c1ccoc1C,-7%,nt,-0.4,-4.8%,-23%,-19

# Full records as entered above. Screens in order: gsp antag	Menin MLL FP FL	TRPML1 agonist	ClpP mod	gsp agonist	TRPML1 inh
# CC[C@@]1(C(=O)OC)N[C@H](CN(C)C(=O)C2CCCCC2)[C@@H]2C(=O)N(Cc3ccccc3)C(=O)[C@@H]21 reads 6%	nt	1.0	-1.7%	nt	12
# CC(=O)c1c2c3c(cccc3n(C)c1=O)C(=O)c1ccccc1-2 reads 1%	?	-0.1	-0.7%	8%	22

# (next part)
structure,gsp antag,Menin MLL FP FL,TRPML1 agonist,ClpP mod,gsp agonist,TRPML1 inh
Cc1ccc(C(=O)NC2CCN(CC(=O)Nc3cccc([N+](=O)[O-])c3)CC2)cc1,-8%,-3.5,-0.3,-1.8%,7%[15.4 µM],-7
CC(=O)Nc1ccc(S(=O)(=O)Nc2nc3ccccc3s2)cc1,-16%,-2.6,2.5,-2.0%,-1%,6
O=C(N/N=C/C=C\c1ccccc1[N+](=O)[O-])c1cc(-c2ccccc2)nc2ccccc12,1%,-1.3,0.5,-2.0%,-1%,4
CCCN(CCC)C(=O)C1CCCN(S(=O)(=O)c2cc(Br)cc3c2N(C(=O)CC)CC3)C1 (stereo not drawn),nt,nt,-1.0,-5.5%,nt,6
Cc1nc2ccccc2n1CC(=O)c1ccccc1,-2%,-0.3,-0.7,-1.7%,1%,-7
CCc1cccc(CC)c1NC(=S)Nc1ccc2cn[nH]c2c1,15%,-2.1,0.0,-18%,?,-14
NCCCn1c(C(=O)c2cc(Cl)c(N)c(Cl)c2)c2ccccc2[n+]1[O-],7%,nt,1.9,-2.3%,nt,13
O=C(OCc1nnc(-c2ccccc2)o1)c1cn(-c2ccccc2)nc1-c1ccccc1,-4%,4.1,1.9,10µM*,17%,-15
CNC(=O)c1sc(-c2cccnc2)nc1C,6%,3.2,0.0,-14%,-15%,4
O=C(O)c1ccccc1-c1cc2ccccc2[nH]1,8%,nt,-0.5,0.2%,-2%[15.4 µM],30
COc1cc(OC)c2c(-c3ccccc3)cc(=O)oc2c1C(CCN1CCCC1)c1ccc2c(c1)OCO2 (stereo not drawn),-6%,2.9&7.3,0.0&0.3,-5.8%,nt,-7&20
N#Cc1c(SCc2ccc(Cl)cc2)sc(C(=O)c2ccccc2)c1N,13%,4.6,1.0,-16%,-20%,-1
O=[N+]([O-])c1ccccc1N/N=C/c1ccc2c(c1)OCO2,1%,5.1,-0.1,nt,-3%[15.4 µM],10
Cc1[nH]nc2c1C(c1cn[nH]c1-c1ccc(F)cc1)C(C#N)=C(N)O2 (stereo not drawn),0%,2.8,1.2,-2.2%,3%,1
Cc1ccc(C(=O)c2c(N)c(C(=O)Nc3cccc(C(F)(F)F)c3)c3ccccn23)cc1,nt,nt,1.2,-16%,nt,0
CCNC(=S)N1CCN(CC(=O)Nc2ccc(Br)cc2)CC1,-5%,-1.0,0.1,3.6%,-32%[inhibitor],-6
CCc1ccc(/C=C2\SC(=S)N(CCCC(=O)Nc3ccccc3C(=O)O)C2=O)cc1,?,nt,0.1,0.9%,23%,8
N#Cc1c(-c2ccc(Cl)cc2)ccn2nc(C3CCCCC3)nc12,10%,9.0,0.8,-25%,-3%,-2
CC1CCc2nc(NC(=O)Cc3ccc(Cl)cc3)sc2C1 (stereo not drawn),nt,nt,-0.7,0.7%,nt,3
CC(=O)c1c(C)[nH]c(C(=O)OCc2cccc(C)c2)c1C,-23%,-2.4,1.0,nt,-15%,-9
CN1CCN(C(c2ccc(C(F)(F)F)cc2)c2ccc3cccnc3c2O)CC1 (stereo not drawn),6%,-2.2,0.9,0.8%,?,13
O=C(COC(=O)C1CCCC1)Nc1ncc(Cl)cc1Cl,11%,nt,-0.4,3.1%,-17%,1
CSc1cccc(NC(=O)CN(C)S(=O)(=O)c2ccc(C)cc2)c1,-3%,-2.2,0.4,0.9%,?,-7
